# Compound activity: PubChem, National Center for Advancing Translational Sciences (NCATS)
# 2A StopGo – High Throughput Screening for Foot and Mouth Disease Virus Antivirals. human cells with a luciferase reporter of 2A StopGo recoding; control for the full effect not named in the record. Potency, µM (series often up to 57.9 µM), without a hit: at the top dose signal change, negative = less light. 1.2% of 410,000 active. AID 1159524, 2015; active = well fitted falling curve with a large enough effect; inconclusive = small, poorly fitted or top-dose-only effect; inactive = no such curve, though single readings can be large or run the other way; tested in HEK293T cells; also: % is scaled to controls: 0 for no effect and ±100 for the full control effect; nearly all actives have a fitted effect of over 45% in size; luciferase light after 4 h
# RE007 growth inh – qHTS Assay for Inhibitors of the HIV-1 protein Vpr; 0.21% of 360,000 active; AID 651644, 2012; S. pombe RE007 Vpr strain, BacTiter-Glo ATP luminescence, 24 h; control for the full effect not named in the record; Potency, µM (doses to about 92.2 µM), for the others: at the top dose activity change, negative = less growth; active = well fitted falling curve with a large enough effect; inconclusive = small, poorly fitted or top-dose-only effect; inactive = no such curve, though single readings can be large or run the other way;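 also: % is scaled to controls: 0 for no effect and ±100 for the full control effect; nearly all actives have a fitted effect of over 50% in size; the assay follows cell death caused by Vpr and the record does not say whether a fall means rescue or toxicity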
#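 Fission yeast RE007 carrying one integrated HIV-1 vpr copy, seeded at OD 0.01 in PMG+AL medium with 23 nL pinned compound. Grown 24 h at 30 degrees; viability read by BacTiter-Glo luminescence after 5 min.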
# MARV entry inh – qHTS for inhibitors of binding or entry into cells for Marburg Virus; Marburg virus pseudotyped entry inhibition, cell reporter; control for the full effect not named in the record; about a third of the inactives were read at about 46 µM; Potency, µM (top dose mostly 37.8 µM), without a hit: at the highest dose activity change, negative = inhibition, most hits filed as inhibitors; 1.8% of 300,000 active; AID 540276, 2011; active = well fitted inhibition curve with a large enough effect; inconclusive = small, poorly fitted or top-dose-only effect, or effect the other way; inactive = flat fitted curve, though single readings scatter; tested in HEK293 cells; about a fifth of its hits are not listed in these tables; also: % is scaled to controls: 0 for no effect and ±100 for the full control effect; luciferase read-out
# Lassa entry inh – qHTS for Inhibitors of binding or entry into cells for Lassa Virus. Lassa virus pseudotype entry inhibition, cell reporter; control for the full effect not named in the record. 1.2% of 300,000 active. Potency, µM (titrated, usually from 37.9 µM), for the others: top-dose activity change, negative = inhibition, actives largely listed as inhibitors; active means well fitted inhibition curve with a large enough effect; inconclusive means small, poorly fitted or top-dose-only effect, or effect the other way; inactive means flat fitted curve, though single readings scatter; tested in HEK293 cells; also: % is scaled to controls: 0 for no effect and ±100 for the full control effect; nearly all actives have a fitted effect of over 50% in size; luciferase read-out
# NS1 inh – qHTS Assay for Inhibitors of Influenza NS1 Protein Function | S. cerevisiae slowed by influenza A NS1, growth recovery by OD600 | AID 2326, 2010 | Potency, µM (titrated, usually from 46.1 µM), for the others: top-dose activity, positive = more growth | 0.4% of 270,000 active; active means well fitted rising curve with a large enough effect; inconclusive means small, poorly fitted or top-dose-only effect; inactive means no such curve, though single readings can be large or run the other way; also: nearly all actives have a fitted effect of over 50% in size
#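 Growth recovery, yeast-based: influenza A NS1 expressed in S. cerevisiae causes slow growth, and suppressors are detected by OD600. The parent strain without NS1 is used as positive control.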
# Cruzain Triton – qHTS Assay for Promiscuous and Specific Inhibitors of Cruzain (with detergent). 0.43% of 200,000 active. Potency, µM, for inactives: max response, negative = inhibition, actives largely listed as inhibitors. purified cruzain, Z-FR-AMC fluorescence, 0.01% Triton. AID 1478, 2009;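 also: plate controls were neutral wells for no effect and buffer without enzyme for full effect; nearly all actives have a fitted effect of over 40% in size; top concentration of the series not given in the record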
# Target sequence (P25779 123-467 limits assumed): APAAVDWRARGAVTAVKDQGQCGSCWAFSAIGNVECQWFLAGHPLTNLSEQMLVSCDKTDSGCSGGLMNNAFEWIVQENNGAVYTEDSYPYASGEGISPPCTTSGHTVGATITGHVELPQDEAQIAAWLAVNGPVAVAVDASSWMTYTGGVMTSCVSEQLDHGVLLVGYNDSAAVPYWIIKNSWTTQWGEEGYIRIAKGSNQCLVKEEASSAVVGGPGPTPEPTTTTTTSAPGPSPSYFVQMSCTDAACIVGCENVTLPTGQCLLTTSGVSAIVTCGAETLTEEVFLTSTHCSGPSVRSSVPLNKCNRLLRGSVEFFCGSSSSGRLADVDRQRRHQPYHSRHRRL
#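 Steps: dispense cruzain (1.5 nM final) in acetate buffer pH 5.5 with DTT and 0.01% Triton X-100; pin-transfer compounds; incubate 15 min RT; add Z-FR-AMC (2 uM final); read fluorescence every 30 s, using the 60 s intensity change.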
# SARS PLP yeast – qHTS of Yeast-based Assay for SARS-CoV PLP. S. cerevisiae expressing SARS-CoV PLpro, growth rescue; control for the full effect not named in the record. Potency, µM (highest dose often 32.9 µM), inactives show top-dose activity, positive = growth rescue. 0.19% of 330,000 active; active means well fitted rising curve with a large enough effect; inconclusive means small, poorly fitted or top-dose-only effect; inactive means no such curve, though single readings can be large or run the other way; also: 0% is about no effect; nearly all actives have a fitted effect of over 55% in size; growth read by luminescence after 48 h
# Cruzain inh noDet – qHTS Assay for Promiscuous and Specific Inhibitors of Cruzain (without detergent); Potency, µM, without a hit: max response, negative = inhibition, actives largely listed as inhibitors; purified cruzain, Z-FR-AMC fluorescence, no detergent; Cruzipain (Trypanosoma cruzi), P25779; 2.3% of 200,000 active;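 also: plate controls were enzyme without inhibitor for no effect and buffer without enzyme for full effect; nearly all actives have a fitted effect of over 40% in size; top concentration of the series not given in the record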
#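 Purified cruzain at 1.5 nM, pre-incubated 15 min with compound at room temperature in 100 mM sodium acetate pH 5.5, 5 mM DTT, 0.00005% Triton X-100. Reaction started with 2 uM Z-FR-AMC; AMC fluorescence increase over 60 s gives rate.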
# * marks the source's active call; other numbers are inactive results; ? = inconclusive; nt = not tested or not shown; & = joins results of further samples; [ ] = dose if it differs, or a comment. Unless noted, calls follow the shape of the dose curve; as a rule, active = well fitted curve in the direction sought with a large enough effect; inconclusive = small, poorly fitted or top-dose-only effect, or another doubt; inactive = no such curve, though single readings can be large; an effect the other way counts as inactive or inconclusive. Potency is read from the fitted curve at half-maximal effect. An unsorted share of the library; about 4.7% have a hit in one of these screens.
SMILES,Lassa entry inh,Cruzain Triton,NS1 inh,RE007 growth inh,Cruzain inh noDet,SARS PLP yeast,MARV entry inh,2A StopGo
Cc1cc(Nc2cc(F)ccc2C)n2nc(C)nc2n1,5%,8.7%,7%,8%,0%,-20%,2%,-3%
COc1ccc(S(=O)(=O)N2CCOC2CNC(=O)C(=O)NCc2ccc(F)cc2)cc1 (stereo unspecified),-17%,nt,-5%,-10%,nt,-7%,18%,-18%
CC(C)=C(NC(=O)c1ccccc1)C(=O)NC(Cc1ccccc1)C(=O)O (stereo unspecified),29%[46.1 µM],nt,-5%,-5%,nt,1%,-7%[46.1 µM],1%
Cc1ccc(S(=O)(=O)c2nc(-c3ccccc3)oc2N2CCC(C(N)=O)CC2)cc1,?,nt,4%,5%,nt,1%,5%[46.1 µM],16%
COc1cc(/C=N/n2cnnc2)ccc1OS(=O)(=O)c1ccccc1[N+](=O)[O-],-22%,-16%,8%,-3%,6%,-9%,7%,-10%
CC(C)CN(CCNC(=O)CN1C(=O)CSc2ccc(S(=O)(=O)N3CCOCC3)cc21)CC(C)C,4%[46.1 µM],0.5%,nt,-4%,4%,1%,nt,-22%&-11%
CCn1c(C(=O)N2CCC(C(=O)NCc3ccc4c(c3)OCO4)CC2)cc2sccc21,-23%,-12%,-22%,16%,?,?,2%,32µM*
O=C(C=Cc1ccccc1O)c1ccccc1O,-14%[46.1 µM],nt,nt,35µM*,nt,nt,?,?
N/C(=N\OC(=O)C1CCCCC1)c1ccccn1,2%,2.6%,0%,-28%,16%,11%,-9%,0%
CC(N)=NCCCC[C@@H](N)C(=O)O,?,0.8%,-2%,nt,4%,nt,?,nt
O=C(O)CCCCCN1C(=O)/C(=C\c2cn(-c3ccccc3)nc2-c2cccs2)SC1=S,nt,nt,28%,-1%,nt,-2%,nt,-21%
Cc1ccsc1/C=N/NC(=O)c1ccc2nc[nH]c2c1,3%,-3.6%,7%,0%,5%,3%,8%,35%[activator]
COc1ccc(/C=N/NC(=O)CN2CCS(=O)(=O)CC2)cc1,-2%,-3.6%,-3%,-4%,1%,1%,3%,17%
Cn1c(=O)c2c(ncn2CC(=O)N2CCN(c3ccc([N+](=O)[O-])cc3)CC2)n(C)c1=O,nt,nt,5%,5%,nt,1%,10%,-20%
CC(=O)C(Sc1nnnn1-c1ccccc1)C(C)=O,18%,nt,3%,-5%,nt,0%,8%,1%
O=[N+]([O-])c1ccc(NCc2ccccc2)nc1,9%,-8.0%,-14%,-26%,4%,-7%,5%,7%
Nn1cnc2sc3c(c2c1=O)CCC3,1%,0.0%,-6%,-7%,1%,1%,15%,-10%
CC1(C)N=C(SCc2ccccc2Cl)c2ccccc2N1,-1%[46.1 µM],-3.6%,nt,nt,-1%,nt,nt,-16%
COC(=O)CC(CP(=O)(O)CN(C)C=O)C(=O)OC (stereo unspecified),nt,nt,2%,-4%,nt,-2%,nt,-27%
CCOc1ccccc1N(CC(=O)Nc1ccc(OC)c(OC)c1)S(=O)(=O)c1ccccc1,nt,nt,4%,-18%,nt,1%,nt,-6%
Cc1ccc(C(=O)NC(=S)Nc2ccc3[nH]c(=O)[nH]c3c2)cc1,1%,0.4%,2%,4%,?,-1%,0%,-22%
O=C(C1Cc2ccccc2CN1S(=O)(=O)c1ccc(F)cc1)N1CCOCC1 (stereo unspecified),-16%,-0.3%,-4%,-19%,-6%,-2%,?,2%
O=C(COc1ccccc1)Nc1ccc2c(c1)C(=O)N(CC1CCCO1)C2=O (stereo unspecified),?,nt,-3%,-8%,nt,5%,25%[46.1 µM],4%
CCCNC(=O)C1CCN(S(=O)(=O)c2ccc3c(c2)CCCN3C(C)=O)CC1,2%[46.1 µM],3.3%,nt,nt,-5%,nt,nt,-5%
COc1ccccc1CNC(=O)COC(=O)c1ccc(Cl)c(N)c1,0%,nt,nt,-11%,nt,-4%,-11%[46.1 µM],-15%
CCCCCCN(C(=O)CCCCCN1C(=O)NC(c2ccc(-c3ccccc3)cc2)C(C(=O)OCc2ccccc2)=C1C)C(C(=O)NCCCC)c1ccc(-c2ccccc2)cc1 (stereo unspecified),nt,-1.2%,24%,nt,?,-3%,nt,nt
Cc1cccc(C(=O)NNC(=S)NC(=O)c2cccs2)c1,?,nt,-119%,-26%,nt,-7%,?,-11%
Cc1cc(C)c2cc(C#N)c(NCCCNC(=O)CCC(=O)O)nc2c1,12%,-1.9%,-3%,0%,10%,-5%,3%,-20%
CC(=O)N1CCc2c(sc3c2c(=O)n(-c2cc(Cl)ccc2C)c(=O)n3Cc2ccccc2F)C1,nt,-6.7%,nt,nt,?,nt,-24%[46.1 µM],-16%
CCOc1ccc(C(=O)c2oc3ccccc3c2NC(=O)Cc2coc3ccc(CC)cc23)cc1,28%[46.1 µM],-2.5%,nt,nt,-4%,nt,27%[46.1 µM],-14%
CCOC(=O)C1CCN(C(=O)C2COc3ccccc3O2)CC1 (stereo unspecified),-12%[46.1 µM],nt,-10%,-26%,nt,3%,2%[46.1 µM],23%
CCN1c2ccccc2NC2C1C(C(C)=O)C(=O)N2c1ccc(Cl)cc1 (stereo unspecified),?,-5.3%,0%,-30%,?,-12%,?,nt
COc1ccc2[nH]c(=O)c(CN(CC3CCCO3)C(=O)Nc3ccccc3OC)cc2c1 (stereo unspecified),?,-8.9%,-4%,-11%,26%,17%,?,-25%
COc1ccc2[nH]cc(CC(=O)O)c2c1,-12%,-1.2%,-49%,0%,-8%,3%,-14%,-19%
O=c1cc(CN2CCC(Cc3ccccc3)CC2)nc2sccn12,-10%[46.1 µM],nt,nt,-18%,nt,0%,22%[46.1 µM],3%
CCOC(=O)Cn1nc(C)n(-c2ccc(C(C)C)cc2)c1=O,0%,5.5%,-11%,24%,1%,8%,?,13%
O=C1c2ccccc2CCC12N=NCC2c1ccccc1 (stereo unspecified),?,-3.5%,-22%,0%,-7%,-2%,-22%,48%[activator]
O=[N+]([O-])c1ccc2c(c1)-c1ccccc1C2=NO,9%,nt,nt,-7%,nt,nt,?,-5%
CC(C)N1C(=S)SC(C)(C)C1NO (stereo unspecified),4%,-1.0%,-2%,2%,0%,2%,11%,-16%
C/C=C/c1ccc(OCCOCCNCc2ccccc2)c(OC)c1,nt,nt,2%,-2%,nt,-1%,nt,-17%
COc1ccccc1CCNC(=O)Cc1c(C)c2c(O)cc(C)cc2oc1=O,11%[46.1 µM],-5.8%,nt,nt,-6%,nt,5%[46.1 µM],-7%
COc1ccccc1N1CCN(C2CCCC(C)C2)CC1 (stereo unspecified),17%,3.7%,3%,-4%,1%,-4%,-15%,nt
Cc1ccc(SC/C(O)=C(\C#N)c2nc3ccccc3n2C)cc1,-27%,-2.1%,9%,-7%,-15%,-2%,-17%,35%[activator]
CC(=O)N=c1n(C)c2ccccc2n1CCOc1ccccc1,?,0.4%,?,-1%,5%,23%,5%,-3%
CCc1cc2c(CN3CCN(CCO)CC3)cc(=O)oc2cc1O,-6%,?,-1%,-5%,?,8%,?,-13%
O=c1cnnc(Nc2cccc(F)c2)[nH]1,-3%[46.1 µM],nt,nt,9%,nt,-3%,4%[46.1 µM],12%
Cc1cc(N)ccc1-n1c(C)ccc1C,-9%,-5.2%,6%,-3%,-2%,-14%,-29%,?
CN1CC(C(=O)c2ccc(Cl)cc2)C(c2ccc(Cl)cc2Cl)C1 (stereo unspecified),-7%,nt,-8%,-16%,nt,-1%,?,-19%
COc1ccc(C2C(C(=O)Nc3cccnc3)=C(C)Nc3nc(-c4ccccc4)nn32)cc1OC (stereo unspecified),22%[46.1 µM],-2.7%,nt,nt,8%,nt,?,-20%
CC(C)CN1C(=O)C(=O)N(CC(=O)N2CCC(Cc3ccccc3)CC2)C1=O,nt,nt,nt,6%,nt,0%,1%[46.1 µM],-17%
Cc1ccc2cc(CN(CC3CCCO3)C(=S)NCc3ccco3)c(=O)[nH]c2c1C (stereo unspecified),5.8µM*,-13%,-13%,4%,-11%,10%,0.63µM*,32%[activator]
CCc1ccc(-n2nc(C)c3c(C(=O)N4CCN(c5ccccc5)CC4)cc(C)nc32)cc1,1%[46.1 µM],-0.7%,nt,nt,6%,nt,nt,?
Cc1cc2nc(-c3ccc(SCc4ccc(C#N)cc4)nc3)[nH]c2cc1C,?,0.8%,22%,-9%,?,-5%,-1%,?
Cc1[nH]c2ccccc2c1C(=O)CN1C(=O)C(=O)N(C2CCCC2)C1=O,-2%,nt,nt,21%,nt,-1%,?,-14%
CCCCn1cnc2cc(NC(=O)c3cc(OC)c(OC)c(OC)c3)ccc21,15%[46.1 µM],-7.8%,nt,nt,9%,nt,4%[46.1 µM],-19%
NC(=O)c1ccsc1NC(=O)COC(=O)c1ccc(Cl)c(N)c1,-3%,nt,nt,17%,nt,-12%,12%,-17%
CCc1nnc(SCc2ccc(OC)cc2)c2cc3sc(C)cc3n12,29%[46.1 µM],-1.2%,nt,nt,-2%,nt,nt,-16%
COCCN(C(=O)COC(=O)C1CC1C)c1c(N)n(Cc2ccccc2)c(=O)[nH]c1=O (stereo unspecified),4%,nt,nt,1%,nt,1%,8%,0%
O=C1CN(S(=O)(=O)c2ccc(F)cc2)CCN1,25%[46.1 µM],nt,nt,-1%,nt,9%,15%[46.1 µM],1%
O=C(NCc1ccccc1Cl)c1cc2ccccc2oc1=O,10%,nt,14%,2%,nt,-1%,8%,81%[activator]
CCOc1ncccc1C(=O)NCCN1C(=O)S/C(=C/c2cccs2)C1=O,-2%,-10%,-8%,-1%,6%,0%,3%,-22%
COc1cc(SC)ccc1C(=O)Nc1ccc(S(=O)(=O)Nc2nccc(C)n2)cc1,?,-0.1%,nt,nt,1%,nt,nt,5%
COc1ccc(C(CNC(=O)CN(C)S(=O)(=O)c2ccc(C)cc2)N2CCCC2)cc1 (stereo unspecified),0%[46.1 µM],nt,nt,?,nt,-7%,?,12%
